NOMO-1 viab: STK33 inhibitor candidate reducing NOMO-1 cell viability | NOMO-1 AML viability, CellTiter-Glo luminescence, 72 h | inhibition, % (concentration not given with the values) | 37,000 compounds, 7.5% hits;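 active = most replicates above 80%; inconclusive = exactly half above 80%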;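 note: wells of about 30 µL received 25 nL stock; 0% = median of vehicle wells and 100% = reference inhibitor level; the first replicate is given; inactives centre near 10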
* marks the source's active call; other numbers are inactive results; ? = inconclusive.

SMILES	NOMO-1 viab
O=C(CC1Nc2cccc3cccc(c23)NC1=O)Nc1cccc([N+](=O)[O-])c1 (stereo unspecified)	60.7
C[C@@H]1CCCCO[C@H](CN(C)Cc2ccncc2)[C@@H](C)CN([C@H](C)CO)C(=O)c2cc(NC(=O)Cc3ccccc3)ccc2O1	6.6
COc1cc(CNC2CCCC2)ccc1OCC(N)=O	0.2
C[C@@H]1CN([C@@H](C)CO)C(=O)c2cc(NC(=O)CCCCCC(=O)Nc3ccccc3N)ccc2O[C@H]1CN(C)S(=O)(=O)c1cn(C)cn1	8.8
Oc1ccc([C@@H]2Oc3cc(O)cc(O)c3C[C@@H]2O)cc1	31.8
Cc1ccc(S(=O)(=O)Nc2ccc3c(c2)C(=O)N([C@@H](C)CO)C[C@H](C)[C@@H](CN(C)Cc2ccncc2)O3)cc1	-1.9
COc1ccc(CN(C)C[C@H]2Oc3ccc(NC(=O)Nc4ccc(C(F)(F)F)cc4)cc3C(=O)N([C@@H](C)CO)C[C@@H]2C)cc1	113.2*
CC(=O)NC(c1ccccc1)c1ccccc1	27.1
COc1ccc(S(=O)(=O)N(C)C[C@H]2Oc3ccc(NS(=O)(=O)c4cccs4)cc3C(=O)N([C@H](C)CO)C[C@H]2C)cc1	-2.0
Cc1ccc2oc(C(=O)Nc3nnc(SCc4ccccc4)s3)c(C)c2c1	14.9

Pulled by compound from the entries so far, 2 records:
SMILES	NOMO-1 viab
O=C(CC1Nc2cccc3cccc(c23)NC1=O)Nc1cccc([N+](=O)[O-])c1 (stereo unspecified)	60.7
Cc1ccc2oc(C(=O)Nc3nnc(SCc4ccccc4)s3)c(C)c2c1	14.9

(more compounds)
SMILES	NOMO-1 viab
COc1ccc(NC(=O)N(C)C[C@@H]2Oc3c(NS(=O)(=O)c4ccc(C)cc4)cccc3C(=O)N([C@H](C)CO)C[C@@H]2C)cc1	11.9
Cc1c(NC(=O)COc2ccc(I)cc2)cccc1C(=O)O	28.1
COc1cc2c(cc1NC(=O)C1CCC(=O)N1S(=O)(=O)c1ccc(C)cc1)oc1ccccc12 (stereo unspecified)	24.2
C[C@@H]1CCCCO[C@@H](CN(C)C)[C@@H](C)CN([C@H](C)CO)C(=O)c2cc(NC(=O)CCCCCC(=O)Nc3ccccc3N)ccc2O1	25.5
C[C@H](CO)N1C[C@H](C)[C@@H](CN(C)Cc2ccc(C(F)(F)F)cc2)Oc2c(NC(=O)Nc3ccccc3)cccc2C1=O	92.8*
COC1=CC(=O)O[C@@H](CCc2ccccc2)[C@@H]1O	-15.9
C[C@H]1CN([C@@H](C)CO)C(=O)Cc2cc(NC(=O)C3CC3)ccc2O[C@H]1CN(C)S(=O)(=O)c1ccc(Cl)cc1	125.1*
CC(C)NC(=O)N(C)C[C@@H]1Oc2c(NS(=O)(=O)c3ccc(F)cc3)cccc2C(=O)N([C@H](C)CO)C[C@H]1C	15.9
O=C(COc1ccc([N+](=O)[O-])cc1)Nc1ccc2oc(-c3ccccc3Cl)nc2c1	17.1
Cc1noc(C)c1S(=O)(=O)Nc1ccc2c(c1)CC(=O)N([C@H](C)CO)C[C@@H](C)[C@@H](CN(C)Cc1ccc(-c3ccccc3)cc1)O2	47.3
CCn1c(SCC(N)=O)nnc1-c1ccc(Cl)cc1	-6.4
C[C@@H]1CN([C@@H](C)CO)C(=O)c2cc(N(C)C)ccc2O[C@H]1CN(C)Cc1ccccc1	2.9
Cc1ccc(S(=O)(=O)N(C)CC(=O)Nc2ccncc2)cc1	32.3
C[C@H]1CN([C@@H](C)CO)C(=O)c2cc(NC(=O)Nc3ccc(C(F)(F)F)cc3)ccc2O[C@H]1CN(C)Cc1ccncc1	102.2*
CC(C)NC(=O)N(C)C[C@H]1Oc2c(NC(=O)CCCCCC(=O)Nc3ccccc3N)cccc2C(=O)N([C@H](C)CO)C[C@H]1C	13.5
C[C@H]1CN([C@@H](C)CO)C(=O)Cc2cc(NC(=O)Nc3cccc4ccccc34)ccc2O[C@@H]1CN(C)Cc1ccc(Cl)c(Cl)c1	108.3*
O=C(CCN1C(=O)C2CC=CCC2C1=O)N1CCN(c2ccccn2)CC1 (stereo unspecified)	5.3
Cc1[nH]c2ccccc2c1C(c1ccccc1)N1CCN(C)CC1 (stereo unspecified)	117.0*
C[C@@H]1CN([C@@H](C)CO)C(=O)c2cc(NC(=O)Cc3cn(C)c4ccccc34)ccc2O[C@@H]1CN(C)Cc1ccc(Cl)c(Cl)c1	92.1*
CC(C)NC(=O)N(C)C[C@H]1Oc2ccc(NS(=O)(=O)c3cn(C)cn3)cc2CC(=O)N([C@@H](C)CO)C[C@@H]1C	2.5
C[C@H]1CN([C@@H](C)CO)C(=O)c2cc(NC(=O)CCC(F)(F)F)ccc2O[C@@H]1CN(C)S(=O)(=O)c1ccc(F)cc1	1.7
CNC[C@H]1Oc2c(NC(=O)C3CCCCC3)cccc2C(=O)N([C@H](C)CO)C[C@@H]1C	19.7
C[C@@H]1CN([C@H](C)CO)C(=O)c2cccc(NC(=O)C3CCCCC3)c2O[C@H]1CN(C)Cc1ccc(-c2ccccc2)cc1	50.8
COc1ccc(S(=O)(=O)Nc2cccc3c2O[C@@H](CN(C)Cc2ccncc2)[C@@H](C)CN([C@@H](C)CO)C3=O)cc1	-0.5
C[C@H]1CN([C@@H](C)CO)C(=O)c2cc(NC(=O)CCC(F)(F)F)ccc2O[C@@H]1CN(C)C(=O)Nc1cccc2ccccc12	7.4
CCOC(=O)c1ccc(NC(=O)CSc2nc3sc4c(c3c(=O)n2C)CCCC4)cc1	32.6
C[C@@H]1CCCCO[C@H](CN(C)S(C)(=O)=O)[C@@H](C)CN([C@H](C)CO)C(=O)c2cc(NC(=O)CCC(F)(F)F)ccc2O1	5.4
COc1cc(OC)c(C(=O)NCc2ccccn2)cc1OC	23.2
C[C@@H]1CN([C@H](C)CO)C(=O)c2cc(N(C)C)ccc2O[C@@H]1CN(C)C(=O)NC1CCCCC1	7.6
O=c1[nH]c2ccccc2c(=O)n1CCNCc1ccccc1	-6.2
Cc1cc(Br)c2c(c1)C(O)(CC(=O)c1ccc(C)o1)C(=O)N2 (stereo unspecified)	?
CCOC(=O)c1ccc(Nc2nnc(CSc3nc(C)cc(C)n3)s2)cc1	24.3
CCOC(=O)c1ccc(NC(=O)CC2NCCNC2=O)cc1 (stereo unspecified)	-12.3
CCOc1ccc(NC(=O)C(C)n2nc(C)c([N+](=O)[O-])c2C)cc1 (stereo unspecified)	21.7
CCOC(=O)c1oc2c(C)c(O)ccc2c(=O)c1-c1nncn1-c1ccccc1	-7.6
Cc1ccc(S(=O)(=O)Nc2cccc3c2O[C@@H](CN(C)CC2CCCCC2)[C@H](C)CN([C@@H](C)CO)C3=O)cc1	10.5
COc1ccc(S(=O)(=O)Nc2ccc3c(c2)C(=O)N([C@H](C)CO)C[C@@H](C)[C@@H](CN(C)C(=O)Nc2cccc4ccccc24)O3)cc1	-5.6
CC(C)NC(=O)N(C)C[C@H]1Oc2ccc(NC(=O)CCC(F)(F)F)cc2CC(=O)N([C@@H](C)CO)C[C@@H]1C	8.8
CCOC(=O)c1ccc(NC(=O)CC2NC3CCCCC3NC2=O)cc1 (stereo unspecified)	-28.8
COc1ccc(CCNC(=O)c2cc3ccccc3oc2=O)cc1OC	-9.1
O=C(Oc1ccccc1OC(=O)c1ccccc1)c1ccccc1	114.5*
O=C(c1ccc(F)cc1)n1nc(-c2ccc(Cl)cc2)nc1NCc1ccco1	104.0*
CC(C)NC(=O)Nc1ccc2c(c1)C(=O)N([C@H](C)CO)C[C@H](C)[C@H](CN(C)Cc1ccc(C(=O)O)cc1)O2	-6.9
C[C@H]1CN([C@@H](C)CO)C(=O)c2cccc(N(C)C)c2O[C@@H]1CN(C)C(=O)Nc1ccc(C(F)(F)F)cc1	38.3
C[C@@H]1CN([C@@H](C)CO)C(=O)Cc2cc(NS(=O)(=O)c3cn(C)cn3)ccc2O[C@@H]1CN(C)Cc1ccc(C(=O)Nc2ccccc2N)cc1	32.4
COc1ccc(S(=O)(=O)N(C)C[C@@H]2Oc3ccc(NC(=O)Nc4ccc(C(F)(F)F)cc4)cc3CC(=O)N([C@H](C)CO)C[C@@H]2C)cc1	114.7*
C[C@H]1CN([C@@H](C)CO)C(=O)Cc2cc(NC(=O)Cn3cnnn3)ccc2O[C@@H]1CN(C)Cc1ccc(C(=O)Nc2ccccc2N)cc1	19.0
COc1ccc(NC(=O)Nc2cccc3c2O[C@@H](CN(C)C(=O)Nc2ccc(OC)cc2)[C@@H](C)CN([C@H](C)CO)C3=O)cc1	33.5
C[C@@H]1CN([C@H](C)CO)C(=O)c2cccc(NS(C)(=O)=O)c2O[C@@H]1CN(C)Cc1ccc(C(=O)O)cc1	-6.4
Cc1ccc(NC(=O)Cn2ccc([N+](=O)[O-])n2)cc1C	9.0
Going on with the list:
SMILES	NOMO-1 viab
C=C(C(=O)O)[C@@H]1CC[C@@]2(C)CC[C@H](O)[C@@]2(C(C)=O)C1	2.6
COc1ccc(S(=O)(=O)N(C)C[C@@H]2Oc3ccc(NS(=O)(=O)c4ccc(Cl)cc4)cc3C(=O)N([C@H](C)CO)C[C@@H]2C)cc1	24.4
C[C@@H]1CN([C@H](C)CO)C(=O)c2cccc(NS(=O)(=O)c3ccccc3)c2O[C@@H]1CN(C)S(=O)(=O)c1cccs1	39.4
C[C@H]1CN([C@@H](C)CO)C(=O)Cc2cc(NC(=O)C3CC3)ccc2O[C@H]1CN(C)C(=O)Nc1ccc2c(c1)OCO2	-6.9
Cc1ccc(-n2c(SCC(=O)Nc3ccc(C)c(Cl)c3)nnc2-c2ccccc2O)c(C)c1	?
CC(C)NC(=O)N(C)C[C@@H]1OCCCC[C@@H](C)Oc2ccc(NC(=O)Nc3ccccc3)cc2C(=O)N([C@H](C)CO)C[C@@H]1C	-2.2
COc1cccc(S(=O)(=O)NCc2ccc(C(=O)Nc3ccc(Cl)cc3)cc2)c1	16.7
CC1CCN(C(=O)c2ccc(C(C)(C)C)cc2)CC1	17.1
C[C@H](CO)N1C[C@H](C)[C@@H](CN(C)CC2CCCCC2)Oc2ccc(NC(=O)Cc3ccccc3)cc2C1=O	13.9
CS(=O)(=O)N(CC(=O)Nc1cccc(C(F)(F)F)c1)c1ccc(Br)cc1	64.3

For convenience, 2 of the compounds above:
SMILES	NOMO-1 viab
C[C@H](CO)N1C[C@H](C)[C@@H](CN(C)CC2CCCCC2)Oc2ccc(NC(=O)Cc3ccccc3)cc2C1=O	13.9
CS(=O)(=O)N(CC(=O)Nc1cccc(C(F)(F)F)c1)c1ccc(Br)cc1	64.3

Carrying on.
SMILES	NOMO-1 viab
COc1ccc(S(=O)(=O)N(C)C[C@@H]2Oc3ccc(NS(=O)(=O)c4ccc(C)cc4)cc3CC(=O)N([C@H](C)CO)C[C@H]2C)cc1	15.6
C[C@@H]1CCCCO[C@H](CN(C)S(=O)(=O)c2cccs2)[C@@H](C)CN([C@H](C)CO)C(=O)c2cc(NC(=O)NC3CCCCC3)ccc2O1	18.9
CC(C)NC(=O)N(C)C[C@H]1Oc2ccc(NS(=O)(=O)c3ccc(Cl)cc3)cc2C(=O)N([C@@H](C)CO)C[C@H]1C	7.6
C[C@H]1CN([C@@H](C)CO)C(=O)Cc2cc(NC(=O)Nc3ccc4c(c3)OCO4)ccc2O[C@H]1CN(C)Cc1ccc(C(=O)Nc2ccccc2N)cc1	126.9*
C[C@@H]1CN([C@H](C)CO)C(=O)c2cc(NC(=O)C3CCCCC3)ccc2O[C@@H]1CN(C)S(=O)(=O)c1ccc(Cl)cc1	21.0
COc1ccc(NC(=O)c2ccccc2NC(=O)COc2cccc([N+](=O)[O-])c2)cc1	1.6
COc1ccc(-c2nnc(SCC(=O)c3ccc(-c4ccccc4)cc3)o2)cc1OC	34.3
Cc1c(NC(=O)CSc2nnc(-c3cccc(Cl)c3)o2)c(=O)n(-c2ccccc2)n1C	-15.2
C[C@H](CO)N1C[C@H](C)[C@H](CN(C)C(=O)Nc2ccccc2)Oc2c(NC(=O)Nc3ccc(C(F)(F)F)cc3)cccc2C1=O	96.2*
NC(=O)CSc1ncn(-c2ccccc2)n1	-0.7

A few values from the entries so far.
C[C@@H]1CCCCO[C@H](CN(C)S(=O)(=O)c2cccs2)[C@@H](C)CN([C@H](C)CO)C(=O)c2cc(NC(=O)NC3CCCCC3)ccc2O1 in NOMO-1 viab → 18.9
C[C@H](CO)N1C[C@H](C)[C@H](CN(C)C(=O)Nc2ccccc2)Oc2c(NC(=O)Nc3ccc(C(F)(F)F)cc3)cccc2C1=O in NOMO-1 viab → 96.2*
C[C@H]1CN([C@@H](C)CO)C(=O)Cc2cc(NC(=O)Nc3ccc4c(c3)OCO4)ccc2O[C@H]1CN(C)Cc1ccc(C(=O)Nc2ccccc2N)cc1 in NOMO-1 viab → 126.9*

The list goes on:
SMILES	NOMO-1 viab
COc1ccc(NC(=O)Nc2ccc3c(c2)CC(=O)N([C@@H](C)CO)C[C@H](C)[C@H](CN(C)C(=O)Nc2ccc(OC)cc2)O3)cc1	-2.2
C[C@H]1CN([C@@H](C)CO)C(=O)c2cc(NC(=O)Nc3ccc(C(F)(F)F)cc3)ccc2O[C@@H]1CN(C)Cc1ccncc1	36.3
C[C@@H]1O[C@H]2Oc3c(-c4ccc(O)cc4)oc4cc(O)c(c(O)c4c3=O)-c3cc(ccc3O)/C=C\C(=O)OC[C@H]3O[C@@H](O[C@H]([C@H]1O)[C@H]2O)[C@H](O)[C@@H](O)[C@@H]3O	2.4
Cc1ccc(-c2csc3nc4c5ccccc5c(NCCCN5CCOCC5)nn4c(=O)c23)cc1	113.7*
COc1ccc(NC(=O)N(C)C[C@H]2Oc3ccc(NC(=O)Nc4ccc(C(F)(F)F)cc4)cc3CC(=O)N([C@H](C)CO)C[C@H]2C)cc1	10.3
O=C(O)CCC(=O)Nc1ccc(Sc2ccc([N+](=O)[O-])cc2)cc1	5.5
Cc1noc(C)c1NC(=O)Nc1cccc2c1O[C@H](CN(C)C(=O)NC(C)C)[C@@H](C)CN([C@@H](C)CO)C2=O	-20.3
Cc1cc(C)n2c(Br)c(CSc3nc4ccccc4o3)nc2n1	25.9
CCn1c(C)nc2cc(S(=O)(=O)C(F)(F)F)ccc21	11.6
Cc1noc(C)c1S(=O)(=O)Nc1ccc2c(c1)C(=O)N([C@H](C)CO)C[C@H](C)[C@@H](CN(C)C(=O)Nc1ccc(F)cc1)OCCCC[C@@H](C)O2	42.9
C[C@@H]1CN([C@H](C)CO)C(=O)c2cc(NC(=O)c3ccncc3)ccc2O[C@@H]1CN(C)C	5.9

Some of the compounds tested (hit frequency here may not be typical).
